Calb FLC = C. albicans growth inhibition with fluconazole, primary screen, CaCi-2 strain, Alamar Blue fluorescence. growth inhibition, % (no concentration beside the values). 300,000 tested, 0.57% active. AID 1979, 2009. C. albicans CaCi-2 (fluconazole-resistant clinical isolate) + fluconazole, 48 h;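 active means most replicates above 75%; inconclusive means exactly half above 75%; inactive means most below 75%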;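 further: all wells also contain fluconazole at 8 µg/ml as a sub-toxic cotreatment; 0% = median of DMSO wells and 100% = median of geldanamycin control wells; wells of about 8 µL received 7.5 nL stock; the first replicate is given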
T cruzi inh = inhibitors of intracellular T. cruzi growth, primary screen, luminescence, NIH3T3 host cells | T. cruzi beta-gal in NIH3T3, 90 h | inhibition, % (no concentration beside the values) | 300,000 tested, 1.4% active | AID 1885, 2009;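 active means mean inhibition across valid replicates above about 55%, limit read from the data; inconclusive means mean below that limit but half or more replicates reach it; inactive means mean below it, under half of replicates reach it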;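 further: signal also drops with host cell toxicity which is not excluded here; 0% = plate median of DMSO wells and 100% = zero luminescence signal; higher percent means less beta-gal luminescence so fewer parasites; stock transfer was 50 nL into about 50 µL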
Vif A3G = inhibitors of Vif binding to APOBEC3G peptide, primary screen, biochemical, TR-FRET, GST-Vif 1-94, biotin-A3G peptide, dose response retest (AID 1117319) | TR-FRET GST-Vif / biotin-A3G peptide binding; higher % means a stronger effect; test concentration not given here; strong numbers were not always called active | inhibition, %; hits with a dose series show IC50 in µM | 260,000 tested, 0.57% active;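 active means above the screen mean plus three standard deviations and confirmed in dose response; inconclusive means results disagree or hit not tested in dose response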;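 further: Vif residues 1-94 fused to GST binding biotinylated APOBEC3G peptide 110-148; 0% = full assay without inhibitor and 100% = GST in place of GST-Vif; retest series ran down from 100 µM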
Ecoli rRNA inh = reduced GFP signal of wild-type E. coli, primary screen, bacterial rRNA inhibitor project, GFP/RFP fluorescence, OD600, single point. GFP signal change (wild-type ribosome), % (concentration not given with the values). 350,000 tested, 1.6% active. AID 720706, 2013. E. coli WT GFP vs humanized-ribosome RFP mutants, 24 h; active compounds read low; DMSO median 0, no signal -100;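 active means significant combined selectivity score with lowered wild-type GFP, culture density cut under 30%, mutant RFP and density less affected; inactive means any of these conditions unmet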; further: one replicate is shown; some compounds called inactive have numbers as strong as hits
A1 inh = caspase 3/7 activation in MEF A1-2A-BIM cells, primary screen, A1 inhibitor project, cell-based, luminescence, HTS. 330,000 tested, 0.066% active. Caspase-Glo 3/7 luminescence, 3 h; percent of clofoctol response, vehicle zero. caspase activation, % (test concentration not listed);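 active means over half of replicate activation scores above 10%, or exactly half above 10 with the replicate mean above 10; inconclusive means replicate mean below 10 yet half the replicates above 10; inactive means over half of replicates below 10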;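 further: wells of about 30 µL received 50 nL stock; many hits fall short of the cut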
AF4-AF9 inh = inhibitors of AF4 peptide binding to AF9, primary screen, biochemical, AlphaScreen, biotin-AF4 peptide, FLAG-AF9, single point. Protein AF-9 (Homo sapiens), P42568. inhibition, % at 10 µM. 350,000 tested, 0.47% active. AID 651704, 2012;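 active means every replicate reaching a set inhibition limit, whatever the replicate mean, cut at about 25% in these data; inconclusive means mean inhibition reaches that limit but some replicates miss it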;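 further: 0% = plate neutral control median and 100% = total signal loss; the record names both 10 and 1 µM as test concentration; the first replicate is given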
Target sequence (P42568 whole entry, looked up): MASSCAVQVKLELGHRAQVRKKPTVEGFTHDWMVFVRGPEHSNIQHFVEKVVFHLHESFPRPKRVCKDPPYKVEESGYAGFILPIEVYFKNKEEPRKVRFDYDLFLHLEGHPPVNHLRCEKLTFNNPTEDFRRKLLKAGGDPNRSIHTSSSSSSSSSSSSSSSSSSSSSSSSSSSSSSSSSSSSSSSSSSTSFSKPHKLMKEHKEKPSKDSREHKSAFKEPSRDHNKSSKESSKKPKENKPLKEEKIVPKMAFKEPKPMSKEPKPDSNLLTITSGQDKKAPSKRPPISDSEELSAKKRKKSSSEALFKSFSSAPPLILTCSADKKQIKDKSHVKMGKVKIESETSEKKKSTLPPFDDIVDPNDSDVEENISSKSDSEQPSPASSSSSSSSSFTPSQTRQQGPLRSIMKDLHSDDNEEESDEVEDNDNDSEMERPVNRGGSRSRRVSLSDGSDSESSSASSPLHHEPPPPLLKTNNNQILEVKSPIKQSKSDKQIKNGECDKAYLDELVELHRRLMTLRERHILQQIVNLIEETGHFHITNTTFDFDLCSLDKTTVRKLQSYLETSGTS
Beta apoptosis = inhibitors of cytokine-induced beta cell apoptosis, primary screen, luminescence. INS-1E cytokine-induced death, ATP luminescence, 48 h; percent of positive-control rescue, neutral wells zero. protection from apoptosis, % (test concentration not listed). 300,000 tested, 0.8% active. AID 435005, 2010;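 active means all replicates at 75% or more, or half of them and the mean; inconclusive means half reach 75% but not the mean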;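 further: 0% = cytokine-treated negative control wells and 100% = positive control rescue; higher means more ATP so stronger rescue from cytokine killing; wells of about 40 µL received 100 nL stock; the first replicate is given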
RanGTP-Impb inh = inhibitors of RanGTP-importin-beta interaction, primary screen, biochemical, FRET, CFP-Ran, YFP-importin-beta, homogeneous. Ran GTPase (GTP-bound) - importin-beta complex. cell-free CFP-Ran/YFP-importin-beta FRET ratio. inhibition, % (test concentration not listed). 300,000 tested, 1.1% active. AID 2216, 2009;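 active means most replicates above 15%; inconclusive means exactly half above 15%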;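 further: 0% = DMSO wells and 100% = Ran loaded with GDP instead of GTP; wells of about 40 µL received 100 nL stock; the first replicate is given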
Ecoli rRNA inh OD600 = also measured in Ecoli rRNA inh; calls as there; OD600 change, %; measured here: OD600 growth;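 optical density of the mix in the first replicate; 0 = DMSO median and -100 = no signal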
Ecoli rRNA inh RFP = also measured in Ecoli rRNA inh; calls as there; RFP signal change, %; measured here: RFP humanized mutant strains;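 first replicate; 0 = DMSO median and -100 = no signal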
* hit, by the source's call; ? = inconclusive; / = not tested or not shown. Some of the compounds tested. The share of hits here may be higher or lower than overall.

SMILES | Calb FLC | T cruzi inh | Vif A3G | Ecoli rRNA inh | Ecoli rRNA inh OD600 | Ecoli rRNA inh RFP | A1 inh | AF4-AF9 inh | Beta apoptosis | RanGTP-Impb inh
O=[N+]([O-])c1cc(Cl)ccc1-c1nc(-c2ccncc2)no1 | -5 | 11 | 18% | -12 | -9 | -3.6 | -0.5 | -2.6 | -1 | 1.2
Cn1c(=O)c2c([nH]c(OCc3ccc(Cl)cc3Cl)[n+]2Cc2ccc(F)cc2)n(C)c1=O | 11 | -1 | -9% | 11 | 10 | 0.9 | 0.1 | 0.8 | 6 | 7.6
Cc1cc(-c2cccs2)c(C#N)c(=S)[nH]1 | -19 | 7 | -3% | -1 | 2 | 6.9 | 0.0 | -3.1 | -5 | 4.9
CCOC(=S)SCC(=O)N1CCc2cc(OC)c(OC)cc2C1C1C(=O)CC(C)(C)CC1=O (centres undefined) | -17 | -7 | ? | / | / | / | -0.3 | / | -1 | 0.9
CN(CC(=O)NCCc1ccccc1)S(=O)(=O)c1cccs1 | -5 | / | 70% | / | / | / | 0.3 | / | 1 | 0.1
CCOc1ccc(C=O)cc1CN1CCCCC1 | 1 | 9 | 1% | / | / | / | -0.6 | / | -2 | -1.9
O=c1c(Br)c(N2CCOCC2)cnn1-c1ccccc1 | ? | -11 | 0% | 18 | 11 | -3.5 | 0.0 | -1.2 | 0 | 2.4
COc1ccc(-c2cc(C(=O)NCc3cccs3)no2)cc1 | -1 | 0 | -8% | -4 | -7 | -3.0 | -3.9 | -6.8 | -3 | 0.3
Cc1c(C(=O)N2CCCCC2)c(S(=O)(=O)Nc2cccc(Br)c2)c(C)n1C | -3 | 32 | 1% | -16 | -19 | -1.4 | -0.2 | 4.5 | / | -2.4
CC(C)CNc1nc2c(c(=O)n(C)c(=O)n2C)n1Cc1cccc(Br)c1 | 4 | 9 | -3% | / | / | / | 1.1 | / | -3 | -1.9
C/C(Cl)=C\Cn1c(NCCCn2ccnc2)nc2c1c(=O)n(C)c(=O)n2C | -5 | 0 | 21% | / | / | / | -1.5 | / | -4 | 0.8
C(=N\n1c2ccccc2c2ccccc21)/c1ccccc1 | -2 | -4 | -2% | 5 | 14 | 1.8 | -0.1 | -3.1 | 4 | 1.2
Oc1ccc(-c2cn3c(n2)SCC3)cc1O | -18 | -4 | 1.1µM* | / | / | / | -0.4 | / | -10 | -0.9
Cc1ccc2nc(-c3cccc(-c4cccc(Cl)c4)c3)c(NCc3ccccc3)n2c1 | 0 | 22 | / | 12 | 14 | 4.1 | -0.5 | 11 | 94* | 1.5
O=C(N/N=C1\NC(=O)C(CO)(CO)S1)c1ccccc1 | -5 | -14 | 3% | 24 | 10 | 1.3 | 0.2 | / | -7 | ?
COc1ccc(OC)c(NC(=O)CSc2nnc(-c3cccnc3)s2)c1 | -1 | 5 | -8% | -5 | 4 | 5.7 | 0.3 | -28 | 99* | -4.7
O=C(CSc1ccccc1C(=O)O)NC12CC3CC(CC(C3)C1)C2 | 3 | -3 | -8% | 7 | -1 | -0.8 | -0.6 | 3.0 | 4 | -6.8
Cc1cc(NS(=O)(=O)c2ccc(NC(=O)NC(C)(C(F)(F)F)C(F)(F)F)cc2)no1 | -2 | -11 | -4% | / | / | / | -4.3 | / | -3 | -3.5
O=C(CCN1C(=O)/C(=C/C=C/c2ccccc2)SC1=S)Nc1nc2ccccc2s1 | -10 | -27 | 6% | 3 | -4 | 0.7 | -0.9 | 2.4 | 6 | 4.9
Cc1ccc(S(=O)(=O)N2CC=C(C(=O)NCc3ccc(F)cc3)CC2)cc1 | 0 | 0 | -4% | 5 | -2 | 3.8 | 0.0 | -4.6 | -4 | 1.5
CCc1nnc(NC(=O)CSc2nnc(Cc3cccn3C)n2CCOC)s1 | 2 | -6 | 3% | 7 | 14 | 3.5 | 0.7 | 5.4 | -2 | 0.1
COC(=O)C1=C(Nc2cc(Cl)cc(Cl)c2)CSC1 | -4 | 3 | 0% | -1 | -8 | 0.6 | -0.1 | -4.0 | -4 | ?
CCN(CC)c1ccc(C(=O)OCc2cc(=O)oc3cc(O)ccc23)cc1 | 0 | 11 | 27% | / | / | / | -1.1 | / | 31 | 7.6
N/C(=N/OS(=O)(=O)c1ccc([N+](=O)[O-])cc1)c1ccncc1 | -3 | -1 | 9% | 12 | 15 | 0.2 | -0.6 | -2.8 | -5 | ?
COc1cc(C=C2C(=O)c3ccccc3C2=O)ccc1O | -2 | -2 | -1% | 18 | 6 | 1.1 | -3.4 | 1.8 | 12 | -4.3

Another view of part of the listing above.
Results follow in this order: Calb FLC | T cruzi inh | Vif A3G | Ecoli rRNA inh | Ecoli rRNA inh OD600 | Ecoli rRNA inh RFP | A1 inh | AF4-AF9 inh | Beta apoptosis | RanGTP-Impb inh
Cc1c(C(=O)N2CCCCC2)c(S(=O)(=O)Nc2cccc(Br)c2)c(C)n1C
    -3 | 32 | 1% | -16 | -19 | -1.4 | -0.2 | 4.5 | / | -2.4
O=C(CCN1C(=O)/C(=C/C=C/c2ccccc2)SC1=S)Nc1nc2ccccc2s1
    -10 | -27 | 6% | 3 | -4 | 0.7 | -0.9 | 2.4 | 6 | 4.9
Oc1ccc(-c2cn3c(n2)SCC3)cc1O
    -18 | -4 | 1.1µM* | / | / | / | -0.4 | / | -10 | -0.9

Later entries.
SMILES | Calb FLC | T cruzi inh | Vif A3G | Ecoli rRNA inh | Ecoli rRNA inh OD600 | Ecoli rRNA inh RFP | A1 inh | AF4-AF9 inh | Beta apoptosis | RanGTP-Impb inh
CCOC(=O)c1c(-c2ccccc2)csc1NC(=O)COc1ccc2c(C)cc(=O)oc2c1 | 3 | 10 | 21% | 31 | 28 | -3.6 | 0.0 | -0.8 | 1 | 1.2
CC1CCCCC1NC(=O)C1CCN(S(=O)(=O)N2CCC3(CC2)OCCO3)CC1 (centres undefined) | -28 | 1 | 3% | / | / | / | -0.1 | / | -2 | 4.1
CN(C)CCN1C(=O)C(O)=C(C(=O)c2cc3ccccc3o2)C1c1ccc(N(C)C)cc1 (centres undefined) | -33 | 3 | 3% | 20 | 4 | -0.2 | 0.1 | 5.0 | 2 | -6.3
CC(=O)C1=C(O)C(=O)N(C2CCCCC2)C1c1ccccc1 (centres undefined) | -4 | 2 | -3% | / | / | / | 0.1 | / | -2 | 2.1
O=C1CN(Cc2cc(=O)oc3cc4c(cc23)CCC4)CCN1 | -20 | -9 | 5% | -2 | 6 | -2.0 | 0.6 | -1.2 | -4 | 2.6
Cc1ccccc1NC(=S)N(CCN(C)C)C(C)c1ccco1 (centres undefined) | 1 | -8 | / | 9 | 11 | -3.0 | 0.6 | 1.9 | -7 | -0.3
CCN1C=C(C(=O)OC)C(c2cccc(OC)c2OC)C(C(=O)OC)=C1 | 4 | -6 | -10% | 8 | 2 | -0.4 | 0.3 | -6.6 | -17 | 126*
O=C(Cc1ccccc1)Nc1ccc(NC(=O)c2ccccc2)c(Cl)c1 | 11 | 13 | / | 7 | 8 | -1.9 | -1.3 | -2.8 | 2 | -2.2
NC(=O)CC[C@H](NC(=O)[C@H](Cc1ccccc1)n1c(=O)[nH]c2ccccc2c1=O)C(=O)N1CCC[C@H]1C(=O)O | 2 | -19 | / | 5 | 6 | -5.0 | 0.0 | -1.5 | -3 | 3.5
CCOC(=O)N1CCC2(CC1)C(C(=O)C13CC4CC(CC(C4)C1)C3)C2(C#N)C#N (centres undefined) | 1 | 0 | -3% | / | / | / | 0.0 | / | 5 | 2.5
CCOC(=O)c1sc(NC(=O)c2ccccc2F)c(C(N)=O)c1C | 17 | -6 | -18% | / | / | / | 0.2 | / | 6 | 4.1
CC1=C(C(=O)Nc2ccccc2)C(c2ccccc2)N2C(=O)CSC2=N1 (centres undefined) | -12 | -3 | 3% | / | / | / | -0.1 | / | -1 | -3.1
Cc1ccc(NS(=O)(=O)c2cccc3cccnc23)cc1Cl | -8 | 9 | -5% | -4 | -8 | 3.6 | 0.6 | 1.0 | 3 | 2.0
Cc1ccc(C)c(NC(=O)C(=O)NCCCN2CCOCC2)c1 | -3 | 0 | / | 18 | 14 | 0.3 | 0.0 | -1.2 | -3 | 3.1
CC(OC(=O)c1cccc(S(=O)(=O)N2CCCCC2)c1)C(=O)NC1CCCCC1C (centres undefined) | -2 | -9 | / | 6 | 7 | -0.4 | -0.9 | -0.2 | 0 | 0.9
CCN(CC)S(=O)(=O)c1ccc(O)c(C(=O)OCC(=O)N2CCCC2)c1 | 1 | -5 | / | 1 | 4 | -2.4 | -0.3 | -2.2 | 1 | -4.2
CC(C)Cn1c(CN(C)Cc2ccccc2)nc2c1c(=O)n(C)c(=O)n2C | 11 | -5 | 4% | -3 | -8 | -6.8 | -0.5 | 3.2 | 3 | 4.2
COc1ccccc1NC(=O)CC(=O)CSc1nnc(-c2ccc(C)cc2)n1C | 12 | -15 | 9% | / | / | / | 0.9 | / | 2 | -4.7
CN(C)CCCNc1ncnc2sc(-c3ccccc3)cc12 | -1 | 52 | -9% | 4 | 19 | 7.8 | -1.1 | 13 | 7 | -1.8
Cc1cc(C)nc(SCC(=O)NNC(=O)c2cccs2)n1 | 3 | 6 | -3% | 3 | 3 | 2.8 | 0.8 | -13 | -3 | -2.3
CC1CCN(CCCCOc2ccccc2[N+](=O)[O-])CC1 | -6 | -30 | 10% | / | / | / | 0.1 | / | 2 | 2.9
O=S(=O)(c1ccc(OC(F)(F)F)cc1)N1CCCC(N2CCOCC2)C1 (centres undefined) | 2 | -15 | / | 9 | 4 | -0.7 | 0.5 | -3.6 | -5 | 0.3
O=C(O)CCc1ccc(-c2ccc(F)cc2)n1CC1CCCO1 (centres undefined) | 3 | 5 | 1% | / | / | / | -0.9 | / | 0 | 1.2
COc1cc(OC)c(OC)cc1CN1CCCC(C(=O)N2CCCCC2)C1 (centres undefined) | -9 | 42 | 0% | / | / | / | 0.7 | / | -4 | -1.2
Cc1cccc(Nc2ccncc2S(N)(=O)=O)c1 | -6 | -6 | / | -3 | 2 | -2.3 | -0.6 | -0.2 | / | 4.2
COc1ccc(C(C)NC(=O)C2CCCC2)cc1OC (centres undefined) | -3 | -10 | 6% | 9 | 13 | -0.4 | 0.3 | 1.1 | 3 | -2.0
COc1ccc(C(=O)C2CCN(CC(=O)Nc3ccc(OC)cc3OC)CC2)cc1 | 2 | 10 | / | -3 | -14 | -0.6 | 0.7 | -0.8 | -2 | 9.1
Cc1ccc(Cn2ccc(NC(=O)c3cc4nc(-c5ccco5)cc(C(F)(F)F)n4n3)n2)cc1 | -3 | 0 | 10% | / | / | / | -0.2 | / | -4 | 4.0

Source: PubChem BioAssay
